Screening results from PubChem BioAssay.
2A firefly: FMDV 2A StopGo reporter, firefly signal; HEK cells with a luciferase reporter of 2A StopGo recoding; Potency, µM (top dose mostly 57.5 µM), without a hit: top-dose signal change, negative = less light; actives 0.23% (n = 120,000); AID 1745856; active = well fitted falling curve with a large enough effect; inconclusive = small, poorly fitted or top-dose-only effect; inactive = no such curve, though single readings can be large or run the other way; further: nearly all actives have a fitted effect of over 60% in size; overnight with compound
2A Renilla: lowers the Renilla signal of an FMDV 2A StopGo reporter; actives 0.32% (n = 120,000); Potency, µM (titrated, usually from 57.5 µM), for inactives: at the highest dose signal change, negative = less light; HEK cells with a luciferase reporter of 2A StopGo recoding; AID 1745857; active means well fitted falling curve with a large enough effect; inconclusive means small, poorly fitted or top-dose-only effect; inactive means no such curve, though single readings can be large or run the other way; further: nearly all actives have a fitted effect of over 55% in size; overnight with compound
Active calls of the source: *; ? = inconclusive; & = joins results of further samples; [ ] = dose if it differs, or a comment. On the % scale 0 is the no-effect control and ±100 the full control effect; potency means the concentration at half of the fitted maximal effect.

SMILES,2A firefly,2A Renilla
CCNC(=O)CNC(=O)c1cc(-c2ccc(F)cc2)nc2ccccc12,0%,11%
CCOc1ccc(C2C(C(=O)c3sc(C)nc3C)=C(O)C(=O)N2CCN2CCOCC2)cc1 (stereo not drawn),20%,13%
COc1ccc(-c2cc(C(=O)NCC(=O)NC(C)C)c3ccccc3n2)cc1,79%[activator],32%[activator]
O=C(NCCCNC(=O)c1ccccc1F)c1cc2ccccc2[nH]1,5%,19%
COc1ccc2c(C)c(CCC(=O)NCc3ccc(OC)c(OC)c3)c(=O)oc2c1,-2%,-12%
COc1ccc(C(=O)CSc2nc3sc(C)c(C)c3c(=O)[nH]2)cc1C,2%,-5%
CC(C)c1ccccc1NC(=O)CSc1nc2ncccc2[nH]1,-16%,-25%
Cc1cccc(CS(=O)Cc2ccc(Cl)cc2)c1 (stereo not drawn),0%,32%[activator]
COc1ccc2cc(CN(C)C(=O)C3CCN(S(=O)(=O)c4cc(F)ccc4F)CC3)ccc2c1,?,?
N#Cc1ccc(NC(=O)COc2ccc3cc(Br)ccc3c2)cc1,2%,-1%
Cc1cccc(-n2ncc3c(NC4CCCCCCCCCCC4)ncnc32)c1,18%,-8%
Cc1ccc(Cn2c(CO)cnc2SCC(=O)Nc2ccc(C)c(Cl)c2)cc1,-15%,0%
O=C(N/N=C/c1ccc(C(F)(F)F)cc1)c1cccs1,56%[activator],18%
CN(CCCNC(=O)c1ccncc1)CC(F)(F)F,15%,-7%
Cc1ccc(-c2nc(S(=O)(=O)c3ccc(C)cc3)c(N3CCN(c4ccccc4)CC3)o2)cc1,-13%,-3%
COc1ccc2c(C)c(CC(=O)Nc3ccc(Cn4cncn4)cc3)c(=O)oc2c1,-5%,-5%
CCOC(=O)c1c(Nc2cccc(C(=O)OC)c2)nnc(-c2ccccc2)c1-c1ccccc1,6%,6%
O=C(NCc1ccccc1)c1cc(C2CC2)nc2ccccc12,0%,53%
COc1ccccc1CNC(=O)CSCc1nc(-c2ccc(OC)c(OC)c2)oc1C,-4%,-4%
CC1CN(c2ccccc2C=O)CC(C)O1 (stereo not drawn),-4%,1%
COc1cc(C2Nc3cc(C)c(C)cc3NC3=C2C(=O)CC(C)(C)C3)ccc1O (stereo not drawn),137%[activator],0%
CCOc1ccc(NCc2cccn2-c2nnc(N3CCC(C(=O)NC(C)c4ccccc4)CC3)s2)cc1 (stereo not drawn),?,0%
COc1ccc(-c2cn3cccnc3n2)cc1NS(=O)(=O)c1ccc(C)cc1,45%[activator],134%[activator]
CCc1ccc2c(CN(CC)Cc3nc4ccccc4c(=O)[nH]3)cc(=O)oc2c1,14%,68%[activator]
Cc1cc([N+](=O)[O-])ccc1NC(c1nnc(-c2ccccc2)o1)c1ccccc1F (stereo not drawn),21%,12%
O=C(Nc1ccc(Cl)c(C(F)(F)F)c1)C(Cl)c1ccccc1 (stereo not drawn),?,43%[activator]
Nc1c(C(=O)Nc2ccc(C(=O)O)cc2)sc2nc3c(cc12)CCCC3,0%,-4%
O=C(CCSc1nc(Cl)nc2nc[nH]c12)N1CCN(Cc2ccccc2)CC1,0%,-7%
CCCNc1c(NC(=O)Nc2ccc(F)cc2)c(=O)oc2ccccc12,1%,11%
COC(=O)c1cc(S(=O)(=O)N(C)CC(=O)N2CCN(c3ccccc3F)CC2)cn1C,15%,10%

Fetched by compound from the list above:
SMILES,2A firefly,2A Renilla
CN(CCCNC(=O)c1ccncc1)CC(F)(F)F,15%,-7%
N#Cc1ccc(NC(=O)COc2ccc3cc(Br)ccc3c2)cc1,2%,-1%
Cc1cccc(-n2ncc3c(NC4CCCCCCCCCCC4)ncnc32)c1,18%,-8%

Some of the entries above, reformatted.
O=C(Nc1ccc(Cl)c(C(F)(F)F)c1)C(Cl)c1ccccc1 (stereo not drawn)
  2A firefly: ?; 2A Renilla: 43%[activator]
Nc1c(C(=O)Nc2ccc(C(=O)O)cc2)sc2nc3c(cc12)CCCC3
  2A firefly: 0%; 2A Renilla: -4%

The listing continues.
SMILES,2A firefly,2A Renilla
NC(=NCCCCCCN=C(N)/N=C(\N)Nc1ccc(Cl)cc1)/N=C(\N)Nc1ccc(Cl)cc1,-6%[11.5 µM],?
O=Cc1cccn1-c1ccc(F)cc1F,10%,4%
Cc1cccc(N2CCN(C(=O)c3sc4nc5n(c(=O)c4c3C)CCC5)CC2C)c1 (stereo not drawn),-20%,-7%
COc1cc(C(=O)NCC2(c3ccccc3)CCC2)cc(OC)c1OCC(N)=O,-6%,-1%
CCc1ccc(NC(=O)Cn2c(=O)n(CCCC(=O)NCc3ccc4c(c3)OCO4)c(=O)c3ccccc32)cc1,-18%,-12%
O=C(Cn1ccc2cc(S(=O)(=O)N3CCCCCC3)ccc21)NCCc1ccccc1Cl,-14%,-5%
COc1ccccc1NC(=O)c1cc(S(=O)(=O)N2CCc3ccccc32)ccc1F,-10%,-6%
CCc1ccccc1NC(=O)c1c(NC(=O)c2ccccc2)sc2c1CCCC2,-17%,-8%
Cc1ccc(C(=O)c2oc3ccccc3c2NC(=O)c2cc(-c3ccccc3)on2)cc1,-3%,-12%
O=C(NCCCCc1ccccc1)c1cc(=O)c2ccccc2o1,30%,9%
CC(C)CCn1c(N2CCN(c3cccc(Cl)c3)CC2)nc2c1c(=O)[nH]c(=O)n2C,-10%,-8%
CCC(=O)N1CCc2cc(Br)cc(S(=O)(=O)CCC(=O)N(CC)Cc3ccccc3)c21,-20%,46%[activator]
CCc1ccc(NC(=O)c2cnc(N3CCOCC3)c3ccccc23)cc1,3%,-25%
CCOc1ccc(NC(=O)C(=O)NCCc2csc(-c3ccc(C(F)(F)F)cc3)n2)cc1,-19%,-9%
CCCCCn1c(=O)[nH]c2cc(C(=O)NCc3ccc(F)cc3)ccc2c1=O,-13%,-7%
Cc1nc(-c2ccsc2)sc1C(=O)Nc1ccc2[nH]c(=O)[nH]c2c1,-1%,-7%
Cc1ccc(-n2c(/C=C/c3ccccc3)nc3ccccc3c2=O)cc1C,12%,?
CC/C(C)=N\NC(=O)CCCCC(=O)N/N=C(\C)CC,41%[activator],36%[activator]
COCCN1CCC(=O)C(C)C1C (stereo not drawn),5%,5%
COc1cc(F)ccc1-c1ccc(=O)n(CC(=O)N2CCC(Cc3ccccc3)CC2)n1,?,?
CC(C)(C)c1ccc(C(=O)Nc2ccc(C(=O)OCc3cc(=O)n4ccsc4n3)cc2)cc1,5%,-4%
COc1ccccc1-c1c(C)nn2c(-c3ccccc3)cc(-c3ccccc3)nc12,0%,5%
CCc1ccc(NC(=O)C2CCCN(c3nn4cc(-c5ccc(OC)cc5)nc4s3)C2)cc1 (stereo not drawn),-25%,?
Cc1ccc(C)c(NC(=O)C(C)Sc2nc3ccccc3nc2C)c1 (stereo not drawn),-6%,-24%
CCc1ccccc1NC(=O)Cc1c(C)nc2nc(-c3cccs3)nn2c1C,-3%,-11%
CC(C)CCNc1nc2c(-c3ccccc3)nnn2c2ccccc12,0%,8%
Cc1cccc(C(=O)NC(Nc2cc(C)ccc2C)C(Cl)(Cl)Cl)c1 (stereo not drawn),-5%,22%
CCn1c2c(c(=O)n3ncc(C(=O)Nc4ccc(F)cc4Cl)c13)CN(Cc1ccc(OC)cc1)CC2,-10%,-23%
O=C(c1cc2c(s1)CCCC2)N1CCN(c2ncccn2)CC1,84%[activator],5%
CC(NC(=O)C(=O)C1C(=O)Nc2ccccc21)C(=O)O (stereo not drawn),-9%,-6%
O=C(NCCc1c[nH]c2ccccc12)c1cccc(F)c1,60%[activator],10%
CC[C@H](C)[C@H](NC(=O)c1ccccc1)C(=O)O,3%,1%
Cc1oc2cc(OCC(=O)NCc3ccccc3)ccc2c(=O)c1Oc1ccccc1,-13%,-5%
Cn1nc(-c2ccccc2F)c2cc(C(=O)Nc3cc(F)ccc3F)sc21,-3%,-6%
CC(C)(C)c1ccc(COC(=O)C2=COCCO2)cc1,164%[activator],18%
Cc1ccc(CNC(=O)c2ccc3ccccc3n2)s1,98%[activator],104%[activator]
CCOC(=O)COc1ccc(CC)cc1C(=O)c1ccn2nc(-c3ccc(F)cc3)cc2n1,-22%,-10%
O=C(NC1CCSc2ccccc21)C1CCCC1 (stereo not drawn),12%,24%
O=C(Cc1ccc(Br)cc1)NC1CCN(C2CC2)C1 (stereo not drawn),18%,-10%
CC1CCc2c(-c3cccc(O)c3)nc3ccc4ccccc4c3c2C1 (stereo not drawn),-5%,2%
CC(C)(c1ccccc1)c1ccc(OC(=O)C2CCS(=O)(=O)C2)cc1 (stereo not drawn),23%,-4%
O=C(Nc1ccc(Br)cc1C(=O)c1ccccc1)c1ccccc1,52%[activator],321%[activator]
CCCc1nc(C#N)c(N2CCN(c3cccc(Cl)c3)CC2)o1,-4%,-6%
CCOc1ccc(-c2nc(Cn3c(=O)cc(C)c4c(C)nn(-c5ccccc5)c43)c(C)o2)cc1,101%[activator],-16%
Cc1cc(NC(=O)[C@@H]2CCCN2S(=O)(=O)c2ccc(OC(C)C)cc2)no1,1%,29%

4 of the compounds above, with two lines to a compound:
Fields: 2A firefly | 2A Renilla
> COc1ccc(-c2cc(C(=O)NCC(=O)NC(C)C)c3ccccc3n2)cc1
 : 79%[activator] | 32%[activator]
> CCOC(=O)c1c(Nc2cccc(C(=O)OC)c2)nnc(-c2ccccc2)c1-c1ccccc1
 : 6% | 6%
> Cc1ccc(Cn2c(CO)cnc2SCC(=O)Nc2ccc(C)c(Cl)c2)cc1
 : -15% | 0%
> O=C(N/N=C/c1ccc(C(F)(F)F)cc1)c1cccs1
 : 56%[activator] | 18%

Remaining list, next part
SMILES,2A firefly,2A Renilla
CCn1c(SCc2ccccc2F)nc2cc(S(N)(=O)=O)ccc21,2%,138%[activator]
Cc1cc(C)cc(NCc2ccccc2CO)c1,47%[activator],16%
COCCCNC(=O)Cn1c(=O)n(-c2cccc(C)c2)c(=O)c2c3c(sc21)CN(C(C)=O)CC3,6%,-4%
Nn1c(SCc2cccc(S(=O)(=O)N3CCOCC3)c2)nnc1-c1cccc(Cl)c1,-8%,23%
CCOC(=O)C(NC(=O)/C=C/c1cccs1)C(=O)OCC,1%,-2%
CCc1ccccc1NC(=O)c1cnc2sc(N3CCCC3)nn2c1=O,1%,-15%
Cc1cccc(C)c1NC(=O)CCSc1nc(-c2ccc3c(c2)OCO3)cc(C(F)(F)F)n1,-21%,-8%
C=C(C)[C@@H]1CCC2(C(=O)OC)CC[C@]3(C)C(CCC4[C@@]5(C)C/C(=C\c6cccc(OC)c6OC)C(=O)C(C)(C)C5CC[C@]43C)C12 (stereo partly drawn),3%,5%
COc1ccc(S(=O)(=O)NCC(c2ccc(N(C)C)cc2)N2CCc3ccccc32)cc1F (stereo not drawn),11%,65%[activator]
CC(C)NC(=O)C(C)Sc1nc(C(F)(F)F)nc2ccccc12 (stereo not drawn),-5%,-10%
Cc1ccc2oc(-c3cc(NC(=O)CC(C)C)ccc3O)nc2c1,4%,-4%
CCCSc1ncc(Cl)c(C(=O)Nc2nc3ccc(OCC)cc3s2)n1,1%&18%,1%&0%
CCN(C(=O)Cn1cnc2onc(-c3ccc(F)cc3)c2c1=O)c1ccc(OC)cc1,?,?
O=C(COc1ccc([N+](=O)[O-])cc1)Nc1ccc2oc(-c3cccc(F)c3)nc2c1,34%[activator],-12%
Nc1nccnc1C(=O)NCCCC1CCCC1,212%[activator],0%
Cc1nn(CC(=O)N2CCC(C)CC2)c(C)c1S(=O)(=O)NC(C)(C)C,14%,20%
COc1ccc(S(=O)(=O)Nc2ccc3c(c2)CCCN3S(=O)(=O)c2ccc(C)cc2)cc1F,1%,219%[activator]
O=S(=O)(NCCc1coc(-c2ccc(F)cc2)n1)c1ccccc1,-20%,9%
CCN(Cc1ccc(C(=O)Nc2cccc(C(=O)NC3CC3)c2)cc1)C(C)C,4%,6%
COc1cc(NC(=O)C2CCCN(S(=O)(=O)c3cn(C)cn3)C2)cc(OC)c1 (stereo not drawn),-22%,-9%
COc1ccc(NC(=O)C(c2ccccc2)N2Cc3ccccc3C2=O)cc1 (stereo not drawn),-9%,55%[activator]
CN(CC(=O)Nc1ccccc1Br)C(=O)CCn1c(=O)oc2ccccc21,50%[activator],-8%
CCc1nc(CNCc2cccc(NC(=O)c3cccc(F)c3)c2)cs1,6%,-12%
Cn1c(=O)c2c(nc(Br)n2C)n(C)c1=O,0%,7%
Cc1ccc2c(C)c(C(=O)Nc3nc(-c4ccc(C)s4)ns3)oc2c1,26%,-5%
CCOc1ccc(S(=O)(=O)c2cn(Cc3ccc(OC)cc3)c3ccc(F)cc3c2=O)cc1,-19%,1%
COC(=O)c1c(NC(=O)c2ccccc2Cl)sc2c1CCC(C)C2 (stereo not drawn),32%[activator],2%
COC(=O)Cc1c(C)c2ccc(OCC(=O)OCc3ccccc3)c(C)c2oc1=O,8%,-2%
O=[N+]([O-])c1ccc(S(=O)(=O)NCc2nc3cccnc3n2Cc2ccccc2Cl)cc1,-5%,44%[activator]
Cc1ccc2c(=O)cc(C(=O)NCc3ccccc3)oc2c1C,-5%,3%
O=C(Nc1cccc(-c2cc3cc(F)ccc3[nH]2)c1)C1CC1,-17%,?
COc1ccccc1NC(=O)C1=C(C)Nc2nc3ccccc3n2C1c1cccc(Br)c1 (stereo not drawn),-7%,-2%
